LANA-H2A inh = blocks KSHV LANA binding to histone H2A/H2B. cell-free LANA-H2A/H2B peptide, fluorescence polarization. 320,000 compounds, 0.6% hits. inhibition, % (test concentration not listed); in the data active = inhibition mostly above about 10%, no sharp cut-off; inactive = mostly below about 6.7%;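 also: stock transfer was 7.5 nL into about 10 µL; 0% = median of vehicle wells and 100% = median of positive control wells; one replicate is shown; the record names a cut of 25% in any replicate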
HNF4A DNA FP = change in binding of human HNF4 alpha to DNA. activity change, % at 10 µM. HNF4a-FITC DNA binding, fluorescence polarization, 1 h. P41235. 360,000 compounds, 0.3% hits; in the data active = activity change above about 30%, passing the limit was not always enough;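 also: controls were the assay level and a saturating level of protein; the project sought stronger binding though the title names inhibitors; some compounds called inactive have numbers as strong as hits; positive values seem to mean higher polarization but the record does not say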
E coli growth = blocks Escherichia coli growth | OD600, 23 h; hits give low values | AID 1053175 | 330,000 compounds, 0.21% hits | OD600 absorbance (test concentration not listed);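 active = OD600 absorbance below the run mean of sample wells minus 3.6 SD, in any replicate, cut at about 0.56 in these data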;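 also: stock transfer was 300 nL into about 60 µL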
UCH37 inh = blocks the human deubiquitinase UCH37; inhibition, % (test concentration not listed); 330,000 compounds, 0.33% hits; Q9Y5K5; purified proteasome/UCH37, Ub-AMC cleavage fluorescence; AID 588478;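 active = mean of two replicates above 20%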;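 also: 0% = compound-free wells with enzyme and 100% = wells lacking proteasome; stock transfer was 100 nL into about 20 µL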
Target sequence (Q9Y5K5 whole entry, looked up): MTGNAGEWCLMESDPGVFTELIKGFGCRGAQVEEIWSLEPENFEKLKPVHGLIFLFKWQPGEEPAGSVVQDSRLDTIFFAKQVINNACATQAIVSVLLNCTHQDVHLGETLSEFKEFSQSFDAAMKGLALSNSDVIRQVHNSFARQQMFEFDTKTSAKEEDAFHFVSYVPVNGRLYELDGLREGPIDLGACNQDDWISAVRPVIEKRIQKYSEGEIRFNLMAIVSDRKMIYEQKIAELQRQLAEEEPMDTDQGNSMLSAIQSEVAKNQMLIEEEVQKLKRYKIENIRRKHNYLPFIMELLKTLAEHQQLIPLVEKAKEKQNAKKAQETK
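Material: Human UCH37 enzyme supplied as purified proteasome complex | Schedule: 30 min preincubation with enzyme, 25 min cleavage at room temperature | Detection: AMC fluorescence 355/460 nm | Measure: % inhibition of Ub-AMC cleavage fluorescence | Controls: Wells without proteasome as full block, compound-free enzyme plus substrate as uninhibited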
FGF22 binding = shifts melting point of recombinant human FGF22. calls only at 9.99 µM. 340,000 compounds, 1.5% hits. recombinant FGF22 thermal shift, SYPRO orange fluorescence; percent of sucrose octasulfate shift, DMSO zero. Q9HCT0;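 active = melting point raised past a set limit in the mean and every replicate; inconclusive = no clear call; three in four hits are not shown here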
ALR H2O2 inh = blocks human ALR sulfhydryl oxidase activity; 290,000 compounds, 3.8% hits; P55789; purified ALR, DTT oxidation, H2O2 HRP-luminol luminescence; inhibition, % (concentration not given with the values); AID 485317;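 active = mean and each replicate at 75% or more; inconclusive = only one of the two met; inactive = neither met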;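 also: stock transfer was 7.5 nL into about 7.5 µL; 0% = neutral wells and 100% = wells with inactivated enzyme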
Target sequence (P55789 whole entry, looked up): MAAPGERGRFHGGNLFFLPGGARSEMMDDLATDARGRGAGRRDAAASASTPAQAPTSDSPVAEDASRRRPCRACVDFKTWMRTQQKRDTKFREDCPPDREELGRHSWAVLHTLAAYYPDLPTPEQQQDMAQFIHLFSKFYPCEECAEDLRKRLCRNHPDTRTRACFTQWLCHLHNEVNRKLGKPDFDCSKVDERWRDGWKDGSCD
Beta2AR agonist = agonists of human beta-2 adrenergic receptor inducing internalization. P07550. Am2.2-beta2AR cells, FAP receptor internalization, flow cytometry; reference of the scale not given here. response, % (concentration not given with the values). 340,000 compounds, 0.43% hits. AID 504454;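 active = response above a set limit, near 3 SD of response in nonfluorescent compounds, cut at about 42% in these data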;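 also: stock transfer was 100 nL into about 11 µL; a reference agonist was the positive control; negative values mostly stem from fluorescent compounds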
Target sequence (P07550 whole entry, looked up): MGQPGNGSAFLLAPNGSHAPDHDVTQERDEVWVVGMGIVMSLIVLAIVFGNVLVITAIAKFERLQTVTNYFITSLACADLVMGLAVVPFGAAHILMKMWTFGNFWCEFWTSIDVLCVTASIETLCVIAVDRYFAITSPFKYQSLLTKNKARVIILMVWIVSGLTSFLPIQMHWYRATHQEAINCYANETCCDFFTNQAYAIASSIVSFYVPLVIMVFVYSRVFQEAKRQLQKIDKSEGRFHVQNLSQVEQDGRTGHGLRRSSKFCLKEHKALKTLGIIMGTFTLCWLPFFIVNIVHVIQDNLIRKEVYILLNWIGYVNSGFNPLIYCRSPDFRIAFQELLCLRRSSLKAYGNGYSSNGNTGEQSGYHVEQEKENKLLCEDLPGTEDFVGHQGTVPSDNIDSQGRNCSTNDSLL
* hit, by the source's call; i = inactive; ? = inconclusive; . = no result given; & = joins results of further samples. This is a subset, so the mix of outcomes need not match the whole.

| Molecule | FGF22 binding | ALR H2O2 inh | LANA-H2A inh | Beta2AR agonist | HNF4A DNA FP | E coli growth | UCH37 inh |
| --- | --- | --- | --- | --- | --- | --- | --- |
| O=C(COC(=O)c1cnc(Cl)c(Cl)c1)NC1CC1 | i | -1 | 5.7 | 7 | 3.2 | 0.69 | -2.0 |
| CCOc1cc(NC(=O)c2cccs2)c(OCC)cc1NC(=O)CCC(=O)NCc1ccccn1 | i | -9 | 0.5 | . | . | 0.7 | 5.3 |
| O=C(N/C=C/c1ccccc1)Nc1ccc(Cl)cc1 | . | 3 | 3.5 | 3 | 0.4 | 0.67 | . |
| CCn1c(SCc2nc(-c3cccs3)no2)nnc1-c1c[nH]c2ccccc12 | . | -5 | 2.3 | 4 | -1.7 | 0.68 | -1.8 |
| Cc1nc2nc(C)c(CCC(=O)O)c(C)n2n1 | . | -5 | 1.9 | -6 | -1.8 | 0.7 | 0.9 |
| O=C(/C=C1\SC(=O)NC1=O)Nc1ccc(F)cc1 | i | 97* | 0.1 | -6 | -1.3 | 0.69 | 7.4 |
| C=CCc1ccc(OCc2ccc(C(=O)OC)o2)c(OC)c1 | . | 1 | -3.6 | 4 | 1.2 | 0.7 | 2.5 |
| COC(=O)c1ccccc1NC(=O)C1(S(=O)(=O)c2ccc(Cl)cc2)CC1 | i | . | 7.4 | 5 | -1.1 | 0.69 | 0.9 |
| Cc1cc(C)n2nc(C(=O)Oc3ccc4c(c3)OCO4)nc2n1 | . | 36 | 1.6 | -5 | -0.5 | 0.7 | 2.0 |
| Cc1nnc(SCC(=O)c2ccc(Cl)cc2)n(N)c1=O | i | 99* | -6.1 | -14 | 0.8 | 0.7 | 2.5 |
| C[C@H]1CN([C@@H](C)CO)C(=O)c2cccc(NC(=O)Nc3ccc(C(F)(F)F)cc3)c2O[C@H]1CN(C)C | i | -2 | -3.0 | 17 | 5.8 | . | 0.2 |
| O=C(/C=C/c1cn(-c2ccccc2)nc1-c1ccc2c(c1)OCCO2)NCCCN1CCOCC1 | i | -3 | 1.1 | 8 | -1.6 | 0.71 | -9.8 |
| Cc1ccc2c(C)c(C(=O)N(Cc3ccc(F)cc3)C3CCS(=O)(=O)C3)oc2c1 (centres undefined) | i | -5 | -1.4 | -4 | 4.0 | 0.65 | 0.6 |
| COc1ccc(/C=N/NC(=O)c2nnn(-c3nonc3N)c2-c2cccs2)c(OC)c1 | i | -7 | 6.2 | -8 | 1.4 | . | . |
| COC(=O)[C@@H]1CCCN1Cc1c(C(=O)N2CCOCC2)nc2c(C)cccn12 | i | -12 | -6.9 | 4 | -3.3 | 0.66 | -1.4 |
| COCCNc1nnc(Cc2ccccc2)c(=O)[nH]1 | i | 0 | -8.3 | -111 | -1.1 | 0.68 | 1.6 |
| S=C(Nc1ccc(Br)cc1)N1CCN(c2ccccn2)CC1 | i | -10 | 11 | -7 | 3.7 | 0.66 | 3.2 |
| O=C(NCCC(=O)N1CCN(S(=O)(=O)c2ccc(Cl)cc2)CC1)Nc1ccccc1 | i | . | . | 0 | 3.3 | 0.67 | -1.2 |
| Cc1ccc(CCNC(=O)C2CC(=O)N(C3CCCCC3)C2)cc1 (centres undefined) | i | -6 | -0.4 | 5 | 3.4 | 0.74 | -0.8 |
| N#Cc1cc2c(nc1SC1CC(=O)N(c3ccccc3)C1=O)CCC2 (centres undefined) | . | ? | -0.3 | -10 | -0.9 | 0.7 | 0.1 |
| COc1cc(/C=C2\SC(=N)N(c3ccc4c(c3)OCO4)C2=O)cc(OC)c1O | i | . | 1.9 | 10 | 20 | 0.69 | 6.8 |
| Cc1ccccc1S(=O)(=O)Cc1ccc(C(=O)N2CCN(c3ccc(F)cc3)CC2)o1 | . | 16 | 3.1 | 2 | 0.7 | 0.72 | -0.7 |
| Nc1ccc(S(=O)(=O)O)cn1 | i | -16&-6&9 | -5.3&-2.4&-0.4 | 0&-3&0 | -4.5&0.9&0.9 | 0.68&0.73&0.69 | 1.1&3.3&2.5 |
| O=C(NCc1cccs1)c1cc(-c2ccncc2)nc2ccc(Br)cc12 | . | . | -0.5 | . | . | 0.72 | 3.7 |
| CCOC(=O)c1ccc(NC(=S)NC(=O)c2cncc(Br)c2)cc1 | i | 6 | 1.0 | -5 | -4.8 | 0.72 | 0.6 |
| CCn1cc(C(=O)OCC(=O)Nc2c(C)n(C)n(-c3ccccc3)c2=O)c(=O)c2ccc(C)nc21 | . | -1 | -0.5 | -7 | 0.6 | 0.66 | 3.9 |
| CC1CC(C)CN(C(=O)COC(=O)c2nccnc2N)C1 (centres undefined) | i | . | 1.2 | 0 | 0.3 | 0.69 | i |
| O=C(CCS(=O)(=O)c1ccc(Br)cc1)Nc1ccc2c(c1)OCO2 | . | -12 | -2.7 | 8 | -1.6 | 0.73 | 0.5 |
| O=S(=O)(Nc1cccc2c1ccc1cccn12)c1cccs1 | . | -4 | 1.5 | -5 | 7.5 | 0.69 | -44 |
| COc1ccc(OCCn2c(C)c(/C=N/n3cnnc3)c3ccccc32)cc1 | . | -1 | 2.7 | -8 | -0.1 | . | . |

Following part
| Molecule | FGF22 binding | ALR H2O2 inh | LANA-H2A inh | Beta2AR agonist | HNF4A DNA FP | E coli growth | UCH37 inh |
| --- | --- | --- | --- | --- | --- | --- | --- |
| CC(C)(C)NC(=O)CSc1nc2cccnc2n1C1CCCCC1 | i | -17 | -5.3 | -12 | 1.2 | 0.67 | -1.7 |
| O=C(NCCCn1ccnc1)c1cc(C(=O)C2CCCCC2)c[nH]1 | i | -2 | -336 | -2 | 0.8 | 0.7 | 1.3 |
| COc1ccc(C(=S)N2CCN(c3ccccc3Cl)CC2)cc1OC | i | -5 | -0.5 | 6 | 0.0 | 0.67 | 0.0 |
| CC(c1nnc(SCC(=O)Nc2sccc2C#N)n1-c1ccc(Cl)cc1)N(C)C (centres undefined) | . | 3 | -2.6 | -1 | 3.4 | 0.66 | 3.4 |
| COc1ccc(CCN=C(N)Nc2nc(C)cc(C)n2)cc1 | . | -13 | -1.8 | -3 | 1.6 | 0.69 | -2.8 |
| S=C(NCCc1ccccc1)N1CCN(C2CCCCC2)CC1 | i | -6 | 1.9 | -4 | 0.2 | 0.67 | -0.3 |
| NS(=O)(=O)c1ccc(CCNC(=O)CSc2ccsc2[N+](=O)[O-])cc1 | i | -9 | -0.4 | 2 | -1.0 | 0.64 | 7.2 |
| O=c1cc(-c2ccccc2Cl)oc2cccc(O)c12 | i | 2 | 5.6 | -9 | 1.7 | 0.71 | 5.3 |
| COCc1cc(C)nc(Oc2ccccc2)c1C#N | . | -119 | -1.7 | 9 | 1.4 | 0.7 | 4.7 |
| CN(CC(=O)Nc1cccc(F)c1)C(=O)c1cccc(S(=O)(=O)N2CC3(C)CC2CC(C)(C)C3)c1 (centres undefined) | i | . | -0.8 | 6 | -1.8 | 0.72 | 2.7 |
| O=C(Nc1ccc2snnc2c1)Nc1cccc2ccccc12 | . | -13 | -1.6 | 16 | 0.4 | 0.68 | -2.0 |
| Cc1sc2ncnc(N3CCN(c4ncccn4)CC3)c2c1C | . | -1 | -3.7 | 1 | 0.6 | 0.69 | -0.2 |
| Cc1ccc(C(=O)C(OC(=O)CNC(=O)c2ccc(Cl)cc2)c2ccccc2)cc1 (centres undefined) | . | -19 | 2.8 | -2 | 0.3 | 0.72 | -1.0 |
| CN(CCO)C1=NS(=O)(=O)c2cc([N+](=O)[O-])ccc21 | i | -27 | 2.5 | 10 | -3.4 | 0.64 | 3.1 |
| COc1ccc(Cl)cc1NC(=O)CN(C)C(C)C(=O)NCC1CCCCC1 (centres undefined) | . | 1 | -1.6 | -11 | -1.2 | 0.7 | 1.7 |
| COc1ccc(CCNC(=O)c2cccc3ccccc23)cc1OC | i | -1 | 3.6 | -8 | 1.4 | 0.66 | 0.4 |
| Cc1cc(NC(=O)COC(=O)c2ccccc2S(=O)(=O)N(C)c2ccccc2)no1 | i | . | -1.3 | 10 | 2.2 | 0.73 | -1.8 |
| COc1ccc(NC(=O)c2cc3cc(OC)ccc3oc2=O)cc1 | i | -2 | -2.9 | 0 | 12 | 0.72 | 5.8 |
| COC(=O)c1nc(N)sc1-c1ccc(Cl)c(Cl)c1 | i | -2 | -3.3 | -4 | 0.5 | 0.69 | -40 |
| COc1ccccc1N1CCN(C(=O)c2oc3cc(C)c(C)cc3c2C)CC1 | . | . | . | -4 | -2.3 | 0.74 | 7.6 |
| Cc1cc2cc(C)c3nnc(SCc4ccccn4)n3c2cc1C | i | -13 | 1.0 | -19 | -1.1 | 0.71 | 4.7 |
| CCn1c2ccc(C)cc2c2nnc(SCCN3CCOCC3)nc21 | i | 31 | 1.3 | -3 | -0.2 | 0.69 | 9.0 |
| CCCCC(=O)NC(NC(=O)CCCC)c1ccc(OCCC)c(OC)c1 | . | -2 | -6.9 | 13 | 0.4 | 0.69 | -1.2 |
| Cc1nc2nc3c(cn2n1)C(=O)CCC3 | . | -24 | 6.6 | 2 | 2.3 | 0.63 | 1.5 |
| CCOC(=O)c1cc2c(ccn2C)n1CC(=O)N1CCN(c2ccc(F)cc2)CC1 | i | -4 | 11 | 3 | -0.7 | 0.71 | 4.6 |
| Cc1ccc(C)c(N2CCN(C(=O)CCCCCn3c(=S)[nH]c4ccc(N5CCOCC5)cc4c3=O)CC2)c1 | i | -1 | -0.4 | -283 | 6.9 | . | . |
| CCOc1ccc(NC(=O)C2CC(=O)N(c3cc(C)cc(C)c3)C2)cc1 (centres undefined) | . | 1 | -1.4 | -1 | -1.3 | 0.72 | 4.3 |
| CC(C)C[C@H](NC(=O)NC(C)C)C(=O)O | . | 57 | 16* | 3 | 0.1 | 0.73 | 2.6 |
| Cn1cncc1C#Cc1ccc2cc(C3(O)CCCCC3)oc(=O)c2c1 | . | 10 | -1.1 | 3 | 2.8 | 0.78 | 2.8 |
| Cc1ccc(C(=O)N2CCCC(c3ccc(Cl)cc3)=N2)cc1 | i | -3 | 0.1 | -5 | 3.0 | 0.69 | 1.1 |

Next section
| Molecule | FGF22 binding | ALR H2O2 inh | LANA-H2A inh | Beta2AR agonist | HNF4A DNA FP | E coli growth | UCH37 inh |
| --- | --- | --- | --- | --- | --- | --- | --- |
| COc1cccc(OC)c1C(=O)Nc1ccc2c(c1)n(C)c(=O)n2C | i | -2 | 2.2 | -7 | -1.1 | 0.71 | 4.6 |
| CN(CC(=O)Nc1ccc(F)cc1)C(=O)CSc1nccn1C | i | -4 | -0.8 | 5 | 7.8 | 0.7 | 4.1 |
| CCOC(=O)Nc1cc(Br)c2c(c1)OCCO2 | . | -6 | 10 | -3 | -2.4 | 0.7 | 6.4 |
| CCOc1cc2c(C#N)c(N3CCCCC3)nc(N)c2c(N)n1 | . | 56 | -1.5 | -14 | 31 | 0.74 | -96 |
| CC(=O)Nc1ccc(S(=O)(=O)Nc2nccc(/C=C/c3ccc(Cl)cc3)n2)cc1 | i | . | -0.9 | -3 | -3.9 | 0.73 | -214 |
| O=C(NCCN1CCCC1)c1ccc2c(=O)n(CCc3ccccc3)c(=O)[nH]c2c1 | . | -6 | 0.6 | -4 | 5.9 | 0.74 | -15 |
| CC(C)(CN1CCN(Cc2ccccc2)CC1)NS(=O)(=O)c1ccccc1 | i | 2 | -0.7 | 2 | 1.9 | 0.69 | 2.3 |
| CN(C)c1ccc(/C=N/NC(=O)CSc2ccccn2)cc1 | i | 99* | 0.8 | -5 | 0.0 | . | . |
| Cc1oc(-c2cccc(Cl)c2)nc1CS(=O)(=O)CC(=O)NC1CC1 | i | 90* | -1.8 | -6 | 2.2 | 0.68 | 2.4 |
| COc1cc(S(=O)(=O)NCCCN2CCOCC2)ccc1Cl | . | 2 | 2.5 | -7 | 19 | 0.65 | 5.4 |
| COc1ccccc1OCCn1c(C)c(C=O)c2ccccc21 | i | -5 | 7.2 | -12 | 2.9 | 0.68 | 2.8 |
| Brc1ccccc1-c1nnc2sc(Cc3ccccc3)nn12 | . | -16 | 3.4 | -3 | 0.4 | 0.7 | 1.6 |
| COc1ccc(NC(=O)N2CCCC2C(=O)Nc2ccccc2F)cc1 (centres undefined) | i | -2 | -3.3 | 2 | -2.8 | 0.65 | 3.3 |
| O=C(Nc1cccc2cccnc12)c1ccc(Br)cc1Br | . | -11 | 1.6 | -1 | -0.8 | 0.65 | -1.2 |
